Mtb hypoxia inh: Mtb hypoxia fluorescent reporter inhibition; M. tuberculosis hypoxia-regulated fluorescent reporter, fluorescence; fluorescence inhibition, % (concentration not given with the values); hit rate 0.1% among 300,000;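 active = 35 to 45% if threefold the growth effect, above 45% if 1.5-fold the growth effect; inactive = the rest, general growth blockers included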;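 also: wells of about 50 µL received 100 nL stock; 0% = vehicle wells and 100% = reference inhibitor wells; whole bacteria with a GFP reporter of the hypoxia response; strong numbers were not always called active; many hits fall short of the cut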
ugtP null kill: compounds lethal to S. aureus RN4220 ugtP deletion mutant; growth inhibition, % (no concentration beside the values); hit rate 0.54% among 330,000; OD600 growth, 16 h; some inactives read as strong as hits;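 active = z-score under -3 and OD600 up to 0.15 on both plates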;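 also: plate controls were untreated wells for no effect and antibiotic for full effect; wells of about 80 µL received 100 nL stock; the first replicate is given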
PrP 5UTR inh: inhibition of PrP 5' UTR reporter expression; inhibition, % (no concentration beside the values); cell-based PrP 5' UTR mRNA reporter, plate reader; hit rate 0.35% among 340,000;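 active = every replicate at 50% or more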;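 also: 0 = median of the neutral control wells; tested in H4 reporter cells; numbers are from one replicate; inactives centre near -14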
Bead autofluor: flagged as autofluorescent in microsphere protease counterscreen | compound autofluorescence counterscreen, microsphere flow cytometry; active compounds read high | fluorescence intensity (concentration not given with the values) | hit rate 3.1% among 360,000 | AID 624483;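 active = at least 3 SD above the mean of all compounds, about 16000 in these data; inconclusive = too few beads counted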;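 also: 100 nL of 1 mM stock went into each well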
RN4220 kill: kills Staphylococcus aureus RN4220; S. aureus RN4220 growth, OD600, 16 h; inhibition, % (test concentration not listed); hit rate 0.33% among 330,000; AID 1259311;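 active = z-score of -3 or lower and OD600 up to 0.18 on both plates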;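 also: plate controls were untreated cells for no effect and reference antibiotic for full effect; stock transfer was 100 nL into about 80 µL; one replicate is shown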
BJeLR viability: BJeLR cell viability loss; BJeLR (HRASV12) viability, CellTiter-Glo ATP luminescence, 48 h; reference of the scale not given here; inhibition, % (test concentration not listed); hit rate 0.17% among 300,000;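 active = replicate mean above 50%; inconclusive = above 50% but judged a plate artefact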;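 also: 50 nL library stock added to about 25 µL; numbers are from one replicate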
Mtb hypoxia inh growth: second read-out of Mtb hypoxia inh, no call of its own (marks repeat the call); growth inhibition, %; measured here: M. tuberculosis growth (absorbance);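 0% = vehicle and 100% = reference antibiotic; read after six days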
An asterisk follows results filed as active; ? = inconclusive; nt = no result given; & = joins results of further samples.

#	Compound	Mtb hypoxia inh	Mtb hypoxia inh growth	ugtP null kill	PrP 5UTR inh	Bead autofluor	RN4220 kill	BJeLR viability
1	CC(=O)c1c(-c2ccccc2)[nH]c2ccccc12	12	4	-3	-19	3107	3.8	7
2	CCNC(=O)C1CCCN(c2nc(C)cc(C)n2)C1 (centres undefined)	2	-1	0	-29	4365	0.2	-9
3	O=C(NCCc1ccc(Cl)cc1)C1CCCO1 (centres undefined)	12	5	6	-1	2941	1.0	-8
4	CN(CC(=O)Nc1ccc(N2CCOCC2)cc1)CC(=O)Nc1ccc(C(F)(F)F)cc1	-2	10	2	-3	4406	0.0	nt
5	COc1ccc(NC(=O)CN(C)S(=O)(=O)c2ccc(Cl)cc2)c([N+](=O)[O-])c1	2	5	-1	nt	11852	5.1	-8
6	COc1ccc(N2CCN(Cc3cc4c(cc3Br)OCCO4)CC2)cc1	-1	5	8	-18	5440	-0.8	-7
7	CCC1=C(OC(=O)N(CC)CC)N2C(=O)OC(=NCC3CC3)[C@]2(Cc2ccccc2)C2C1=CCC1C(=O)N(c3ccccc3)C(=O)C12 (some centres undefined)	0	2	0	nt	nt	-0.5	nt
8	Cn1c(=O)c([N+](=O)[O-])c(NCCc2ccccc2)c2ccccc21	6	2	-1	-3	6773	9.5	0
9	O=C(COC(=O)c1ccccc1)NC12CC3CC(CC(C3)C1)C2	8	6	0	-3	6392	2.2	nt
10	C#CCOCCOCCOCCNc1nc(N2CCN(C(=O)C(CCCCN)n3cc(C(N)CC(C)C)nn3)CC2)nc(N2CCN(C(=O)C(CCC(=O)O)n3cc(C(N)C(C)CC)nn3)CC2)n1 (centres undefined)	19	13	3	nt	nt	4.0	nt
11	Cc1ccc(S(=O)(=O)N2CCOCC2)cc1C(=O)Nc1ccc(C(N)=O)cc1	9	1	0	-32	4030	2.3	-3
12	Cc1nnc2ccc(-c3ccc(NS(C)(=O)=O)cc3)nn12	3	-18	13	-21	2276	5.0	-9
13	O=C(COc1ccc(Cl)c2cccnc12)N1CCOCC1	11	3	2	-15	3850	4.2	nt
14	COc1cccc(NC(=O)CSc2cccc[n+]2[O-])c1	-2	-6	7	-25	3974	4.8	nt
15	CCOc1ccc(S(=O)(=O)N2CCC(C(=O)NCCc3ccc(S(N)(=O)=O)cc3)CC2)cc1	-2	-2	7	-9	3547	2.2	-13
16	Cc1cc(NC(=O)CSc2nnc(CNC(=O)c3c(F)cccc3F)o2)no1	-12	-11	4	-15	5063	3.7	0
17	CCN(CC)c1ccc(NC(=O)CN2CCN(c3ccccc3F)CC2)cc1	nt	nt	3	-18	2601	2.5	3
18	N=C1C(c2nc3ccccc3s2)=C(O)CN1NC(=O)c1ccc([N+](=O)[O-])cc1	16	4	-1	-27	4861	31	nt
19	C[C@H](N)c1nnc(SCC(N)=O)o1	4	-1	4	3	5827	4.3	3
20	CCCCN(CC)S(=O)(=O)c1c(C)[nH]c(=O)[nH]c1=O	-12	-7	0	-27	3741	0.1	5
21	O=C(c1cc(COc2ccc(F)cc2Cl)on1)N(Cc1ccncc1)CC1CCCO1 (centres undefined)	-1	0	-2	-9	2478	9.7	2
22	CCCCn1nnnc1NCc1cccc(OC)c1OC	14	2	10	nt	11722	4.3	nt
23	COC(=O)C1(C)NC(c2ccc(C)cc2)C2C(=O)N(c3ccc(F)cc3)C(=O)C21 (centres undefined)	-13	-1	0	9	4221	-0.4	4
24	Cc1cccc(Cn2c(=O)n(CCCC(=O)NCc3ccco3)c(=O)c3ccccc32)c1	2	2	0	-26	10191	4.6	6
25	CC(=O)Nc1ccc(-c2csc(Nc3ccccn3)n2)cc1	2	-3	26	-67	4335	-2.2	7
26	O=C(COC(=O)Cc1ccc(F)cc1)Nc1ccc2[nH]c(=O)[nH]c2c1	-1	-2	7	-20	5495	0.3	-2
27	CCn1c(SCC(=O)Nc2c(C)n(C)n(-c3ccccc3)c2=O)nnc1-c1cccc(C)c1	nt	nt	6	-6	3188	1.5	-3
28	CC(C)c1ccc(-n2c(O)c(C=NC(CCS(C)=O)C(=O)O)c(=O)[nH]c2=S)cc1 (centres undefined)	14	4	1	-15	4488	4.4	-19
29	Cc1ccc(OCC(=O)NN=Cc2ccc3c(c2)OCO3)cc1C	-16	-7	-11	nt	nt	0.7	nt
30	Nc1nc(SCC(=O)N2CCc3ccccc32)[nH]c(=O)c1-c1ccccc1	-7	0	-1	-15	9261	3.8	-3
31	COc1ccccc1C=NNC(=O)CSc1cc(C)nc2ccccc12	11	9	4	nt	nt	11	nt
32	O=C(CCNC(=O)c1ccc(Cl)cc1)NC1CCCc2ccccc21 (centres undefined)	2	-1	4	-25	5919	3.5	nt
33	Cc1ccc(C(=O)N2CCN(c3ccccn3)CC2)cc1C	nt	nt	nt	6	3629	nt	2
34	CCC(C(=O)Nc1ccccc1OC)n1c(C(=O)OC)cc2ccsc21 (centres undefined)	4	-9	-10	6	11765	1.7	-3
35	CCOC(=O)Cc1nnc(NC(=O)CSc2ccc(C)cc2)s1	5	6	-3	-34	10103	7.1	4
36	CCOc1ccccc1/C=N/Nc1ccc(Cl)nn1	nt	nt	nt	-8	2986	nt	7
37	CN(CC(=O)Nc1ccccc1C(F)(F)F)C(=O)CSCc1ccccc1	9	4	11	-29	?	1.0	4
38	CCc1nn(C(C)C(=O)N2CCc3ccccc3C2)c(=O)c2cc3occc3n12 (centres undefined)	13	12	1	-5	2935	6.6	1
39	CC(=O)O[C@]1(C(C)=O)CC[C@H]2[C@@H]3C[C@H](C)C4=CC(=O)CC[C@]4(C)[C@H]3CC[C@@]21C	nt	nt	nt	-6&-38	5263&5493	nt	3
40	CC(C)NS(=O)(=O)c1ccc(OCC(=O)NCCC2=CCCCC2)cc1	7	9	-1	-19	11035	7.6	15
41	C/C(CC(=O)Nc1cc(C)ccn1)=N\NC(=O)c1ccc(C)cc1	nt	nt	nt	-6	2213	nt	3
42	COc1ccc(-c2c(C)c3ccc(O)cc3oc2=O)cc1OC	-6	15	3	-13	5311	5.0	-3
43	O=C(NC1CCCN(Cc2ccc(Cl)cc2)C1)c1ccoc1 (centres undefined)	2	1	11	-18	nt	3.7	2
44	O=C(NCCN1CCOCC1)c1csc2c1CCCC2	10	8	-1	-23	8777	4.9	-2
45	COc1ccc(NS(=O)(=O)c2ccc3c(c2)CCO3)cc1	3	12	7	-19	nt	1.3	-7
46	COc1ccccc1CN(C)C(=O)CN1CCN(CC(=O)Nc2ccccc2Cl)CC1	-1	9	5	-8	3570	5.1	nt
47	CCNc1ccc(C(=O)Nc2ccc3nc(C)sc3c2)cc1[N+](=O)[O-]	-4	2	-3	-2	8879	13	-12
48	Cn1cccc1C(=O)N1CCN(c2cccc(C(F)(F)F)c2)CC1	-1	-4	-12	-40	5451	4.4	-2
49	Oc1ccccc1C1=NCCNC(C(F)(F)F)=C1	0	11	3	-17	3467	5.6	5
50	O=C(NC1CCC(O)CC1)c1ccc(-c2ccc(Cl)cc2)o1 (centres undefined)	14	5	-9	-81	6242	6.7	-11
51	CC(C)OC(=O)CSc1nc(-c2ccc(F)cc2)cc(C(F)(F)F)n1	nt	nt	17	-5	4714	1.4	-8
52	COc1cc(OC)c(NC(=O)c2ccccc2F)cc1Cl	1	0	0	-24	2112	5.2	-13
53	Cc1cccc(-n2ncc3c(N4CCOCC4)ncnc32)c1	10	-1	10	44	5262	3.0	12
54	CC(C)N(C(=O)[C@H]1C[C@H](CC(=O)NC(C)(C)C)C(=O)N2CCc3c([nH]c4cc(-c5ccco5)ccc34)[C@]12C)C(C)C	0	0	35	-10	4359	-5.7	nt
55	COc1cccc(OCC(=O)Nc2ccc(OC)c(OC)c2)c1	nt	nt	6	-11	4480	4.3	-5
56	C/C(=N\NC(=S)NC(C)C)c1ccc(Cl)s1	nt	nt	nt	-16	2578	nt	6
57	CN(Cc1ccccc1)C(=O)CSc1cc(=O)n(C)c2ccccc12	-7	-5	0	-25	2609	1.1	1
58	CC(=O)Nc1c2c(nn1-c1ccccc1C)CS(=O)(=O)C2	-8	-11	13	-2	3811	3.9	-2
59	O=C(/C=C/c1ccccc1)OCCCN=C1NS(=O)(=O)c2ccccc21	-4	4	4	-18	2514	1.1	6
60	N#C/C(=C(\O)C(F)(F)F)c1nnc2n1CCCCC2	nt	nt	nt	-12	3273	nt	-1

More structures
#	Compound	Mtb hypoxia inh	Mtb hypoxia inh growth	ugtP null kill	PrP 5UTR inh	Bead autofluor	RN4220 kill	BJeLR viability
61	NC(=O)CSc1nnc2sc3ccccc3n12	9	3	9	-10	3120	5.8	2
62	COc1cc(C=NNc2ncc(C(F)(F)F)cc2Cl)cc(OC)c1O	0	-5	12	nt	nt	8.0	nt
63	COc1cc(NS(=O)(=O)c2ccc(NC(=O)/C=C/c3cccc([N+](=O)[O-])c3)cc2)ncn1	nt	nt	nt	-3	3395	nt	-2
64	COCCn1c(=S)[nH]c2cc(C(=O)N3CCN(c4ccc(F)cc4)CC3)ccc2c1=O	1	-5	3	-2	8154	-0.1	7
65	O=c1[nH]c(=S)n(-c2ccccc2)c(O)c1C=NCCN1CCNCC1	5	-3	5	-16	3361	3.7	-5
66	Cc1cccc(C(=O)Nc2c(C(=O)N3CCN(C)CC3)cnn2-c2ccccc2)c1	6	6	5	-17	5418	2.3	3
67	COc1cc([N+](=O)[O-])cc(/C=N/NC(=O)C(C)Nc2cccc3ccccc23)c1O (centres undefined)	nt	nt	nt	-2	2388	nt	-5
68	Cc1ccc2nc(NC(=O)C3CCCN(S(=O)(=O)c4cccnc4)C3)sc2c1 (centres undefined)	nt	nt	-1	-21	6622	8.2	-4
69	COc1ccc(N(C(=O)c2ccccc2)S(=O)(=O)c2cccs2)cc1	8	0	2	-23	2509	12	5
70	NC(=NCCc1ccccc1)c1cccc([N+](=O)[O-])c1	-8	-2	4	-17	4311	4.2	4
71	O=C(NCCO)C(=O)NCC1CCCN1S(=O)(=O)c1cccs1 (centres undefined)	10	3	9	-9	7076	3.5	2
72	c1ccc2c(c1)[nH]c1nc3nncn3nc12	-1	-2	-2	-7	9390	0.0	3
73	Cc1cc(C(=O)CSc2nnc(Nc3ccccc3)s2)c(C)n1CC1CCCO1 (centres undefined)	nt	nt	-4	-21	3825	-3.3	0
74	O=C(NN=Cc1ccc(F)cc1)c1cccc(S(=O)(=O)N2CCCC2)c1	13	7	6	-18	8888	-2.9	nt
75	CCc1cc(C(=O)N2CCCC(CO)(Cc3ccc(F)cc3)C2)n(C)n1 (centres undefined)	-7	-1	-1	-2	6023	0.3	4
76	Cc1ccc(CSCC(=O)N2CCOCC2)cc1	nt	nt	4	-23	2914	1.9	-5
77	COC(=O)CNC(=O)C(CCSC)NC(C)=O (centres undefined)	-4	14	1	-20	4808	1.8	-8

From compound 75 as far as 76, copied from above:
#	Compound	Mtb hypoxia inh	Mtb hypoxia inh growth	ugtP null kill	PrP 5UTR inh	Bead autofluor	RN4220 kill	BJeLR viability
75	CCc1cc(C(=O)N2CCCC(CO)(Cc3ccc(F)cc3)C2)n(C)n1 (centres undefined)	-7	-1	-1	-2	6023	0.3	4
76	Cc1ccc(CSCC(=O)N2CCOCC2)cc1	nt	nt	4	-23	2914	1.9	-5

Bioassay records: PubChem, several laboratories
